High-throughput results from PubChem.
HIV TAR-Tat: HIV-1 TAR-Tat binding disruption; HIV-1 TAR RNA, Tat peptide displacement FRET; active compounds read high; z-score (test concentration not listed); 100,000 compounds, 0.6% hits; AID 1259389;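 also: score is relative to mean and SD of negative controls; some compounds called inactive have numbers as strong as hits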
CDC25B-CDK2 inh: human CDC25B-CDK2/CyclinA binding inhibition; 94,000 compounds, 0.72% hits; HTRF CDC25B-CDK2/CyclinA binding, anti-His/anti-Flag; active compounds read high; z-score (no concentration beside the values);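 also: score is relative to mean and SD of negative controls; strong numbers were not always called active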
* = called active by the depositor; . = not tested or not shown.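 The calls were made as follows: active = z-score from 3 up in half or more of its runs; inactive = the rest.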

SMILES | HIV TAR-Tat | CDC25B-CDK2 inh
O=C(CSc1nc(=O)n(CCN2CCOCC2)c2c1CCC2)N1CCCc2ccccc21 | 0.8 | .
Cc1ccc(S(=O)(=O)N2CCCC2CO)cc1 (configuration not stated) | 0.83 | 0.15
CC(C)c1onc(C(=O)Nc2cc(Cl)ccc2O)c1[N+](=O)[O-] | -0.45 | -1
O=C(c1noc2c1COc1ccccc1-2)N1CCN(c2ccc(F)cc2)CC1 | 0.73 | -0.45
CCCCCCn1c(N2CCN(c3ccccc3)CC2)nc2c1c(=O)n(C)c(=O)n2C | . | -1.6
O=c1c(Nc2cccc(F)c2)nccn1-c1ccc(Cl)cc1 | -1.1 | -1.7
Cc1ccc2[nH]c3sc(C)nc3c2c1 | . | -1.1
O=C(Nc1nc2ccccc2n1CCN1CCCCC1)C1CCCCC1 | 0.78 | -1.4
CC(=O)N1N=C(c2ccc(C)o2)OC1c1ccc(-c2ccccc2)cc1 (configuration not stated) | 0.17 | .
COCCNC(=O)CCCn1c(=O)[nH]c2ccsc2c1=O | 1.4 | -1.6
O=C1CC(c2cccc(O)c2)c2c(nc(SCc3ccc(F)cc3)[nH]c2=O)N1 (configuration not stated) | 0.88 | 0.22
O=C(Cn1ncc2c(=O)oc3ccccc3c21)N1CCC(N2CCCCC2)CC1 | 0.02 | -1.1
Cc1ccc(-c2cc(C(F)(F)F)n3ncc(C(=O)OCCc4c(C)noc4C)c3n2)cc1 | 2.1 | 1.5
CCc1ccc2nc(NC3=NCN(CCN4CCOCC4)CN3)nc(C)c2c1 | 1.3 | 2.9
CC(C)NC(=O)C1CCCN(c2nnc(N3CCCC3=O)s2)C1 (configuration not stated) | 3.7 | -2.3
Oc1ccccc1-c1n[nH]c(=S)o1 | . | -1.2
CCc1nnc(SCc2ccccn2)c2cc3sc(C)cc3n12 | 1.3 | .
O=C(c1cc2c(s1)-c1ccccc1OC2)N1CCN(Cc2ccc3c(c2)OCO3)CC1 | 0.82 | -0.5
O=C(C1CC1)N1CCc2cc(S(=O)(=O)NCC3COc4ccccc4O3)ccc21 (configuration not stated) | . | -0.48
Cc1cc(C)n2nc(CNS(=O)(=O)c3ccc(F)cc3)nc2n1 | 1.5 | -1.6
O=C(c1ccncc1)N(c1ccc2oc(=O)sc2c1)S(=O)(=O)c1ccc(F)cc1 | 1.4 | -2.7
O=S(=O)(Cc1cccc(C(F)(F)F)c1)Cc1cccc(C(F)(F)F)c1 | . | -1.7
CCCCCCNC(=O)c1c(O)c2c([nH]c1=O)CCCC2 | 1.1 | .
COc1ccc(S(=O)(=O)Nc2cc3c(cc2N2CCCC2)n(C)c(=O)c(=O)n3C)cc1Cl | -1.7 | .
Cc1cccc(-c2nc3scc(CCNS(=O)(=O)c4ccc(F)cc4C)n3n2)c1 | -0.77 | .
CC(=O)C(Sc1nc(C)nc2c1c(=O)n(C)c(=O)n2C)C(C)=O | . | -0.04
CCOc1ccc(S(=O)(=O)Nc2ccc(O)c(-c3c(O)ccc4ccccc34)c2)cc1 | 0.82 | -1.4
COc1ccc2c3c1O[C@H]1C[C@@H](O)C=C[C@@]31CCN(C)C2 | -0.36 | .
O=C(NCC1CCCO1)c1[nH]c2ccccc2c1Sc1ccc(Cl)cc1 (configuration not stated) | 3.3 | -0.7
O=C1c2ccccc2CCC1Sc1nnc(-c2ccccc2)o1 (configuration not stated) | 1.9 | -1.1

Quoted at random: 6 records from the list
SMILES | HIV TAR-Tat | CDC25B-CDK2 inh
CCCCCCNC(=O)c1c(O)c2c([nH]c1=O)CCCC2 | 1.1 | .
CC(=O)C(Sc1nc(C)nc2c1c(=O)n(C)c(=O)n2C)C(C)=O | . | -0.04
CCc1nnc(SCc2ccccn2)c2cc3sc(C)cc3n12 | 1.3 | .
Cc1cccc(-c2nc3scc(CCNS(=O)(=O)c4ccc(F)cc4C)n3n2)c1 | -0.77 | .
O=C(NCC1CCCO1)c1[nH]c2ccccc2c1Sc1ccc(Cl)cc1 (configuration not stated) | 3.3 | -0.7
O=C(c1ccncc1)N(c1ccc2oc(=O)sc2c1)S(=O)(=O)c1ccc(F)cc1 | 1.4 | -2.7

(continued)
SMILES | HIV TAR-Tat | CDC25B-CDK2 inh
CCC1(C)Cc2ccccc2C(NC(=O)Nc2ccccc2OC)=C1C#N (configuration not stated) | 1.4 | -1.8
CSc1nc(N)nc(-c2ccc(C(F)(F)F)cc2)n1 | . | -0.62
CCCCc1c(O)nc(SC)[nH]c1=O | . | -2.5
CCOc1ccc(CN=C2NS(=O)(=O)C(c3ccc(F)cc3)=C2C)cc1 | 0.58 | .
Cc1ccc(C)c(NC2=NC3(CCCCC3)N=C(N)N2)c1 | . | -0.01
O=C(CC(=O)c1ccccc1O)c1ccco1 | -1.3 | -1.5
Cn1cc([N+](=O)[O-])cc1C(=O)Nc1ccc(Cl)cc1 | 1 | .
Cc1cc(F)ccc1NC(=O)CCc1c(C)nn2cnnc2c1C | 0.55 | .
CCN(CC)C(=O)C1CCC(=O)N1S(=O)(=O)c1ccccc1 (configuration not stated) | 1.3 | .
COc1ccccc1-n1ccn2c(=O)[nH]nc2c1=O | 0.11 | -0.88
O=C(Nc1cnn(Cc2ccccc2)c1)c1nc2ncccn2n1 | 1.8 | -0.98
O=C(NCc1cccn1Cc1cccc(F)c1)NC1CCCC1 | -0.22 | .
CSc1ccc(CCNCc2ccc(C(=O)O)s2)cc1 | 1.2 | 1.2
COc1ccc(N2C(=O)CC(Sc3nc4c(cc3C#N)CCCC4)C2=O)cc1 (configuration not stated) | -1.5 | -0.7
COc1ccc(Br)c(CC2C(=O)Nc3ccccc32)c1 (configuration not stated) | 0.61 | -1.4

Sorted by molecular weight (smallest number first): 6 of the compounds above
SMILES | HIV TAR-Tat | CDC25B-CDK2 inh
CCCCc1c(O)nc(SC)[nH]c1=O | . | -2.5
O=C(CC(=O)c1ccccc1O)c1ccco1 | -1.3 | -1.5
O=C(NCc1cccn1Cc1cccc(F)c1)NC1CCCC1 | -0.22 | .
CCN(CC)C(=O)C1CCC(=O)N1S(=O)(=O)c1ccccc1 (configuration not stated) | 1.3 | .
COc1ccc(Br)c(CC2C(=O)Nc3ccccc32)c1 (configuration not stated) | 0.61 | -1.4
CCOc1ccc(CN=C2NS(=O)(=O)C(c3ccc(F)cc3)=C2C)cc1 | 0.58 | .

(more compounds)
SMILES | HIV TAR-Tat | CDC25B-CDK2 inh
COc1ccc(C2Nc3c(C(=O)O)cccc3C3C4CCC(C4)C23)cc1 (configuration not stated) | 0.47 | -0.22
Brc1ccc2ncnc(NCc3cccnc3)c2c1 | . | 0.25
C=C[C@](C)(O)CC[C@H]1C(=C)CC[C@H]2C(C)(C)CCC[C@]12C | 0.84 | .
Cn1c(-c2ccc(F)cc2)cnc1NCc1c(F)cccc1Cl | -1.4 | 2.8
CS(=O)(=O)c1ncc(Cl)c(C(=O)Nc2c(C(=O)c3ccc(Cl)cc3)oc3ccccc23)n1 | 0.73 | 0.15
COc1ccc(NC(=O)CN2N=NC3C(=O)N(c4ccc(Cl)cc4)C(=O)C32)cc1OC (configuration not stated) | -0.96 | .
CSc1ccccc1NC(=O)c1cnn2c(C(F)(F)F)cc(-c3ccco3)nc12 | -0.39 | -0.79
CCCCN(C)c1ncnc2c1cnn2-c1cccc(Cl)c1 | 0.51 | .
CN1CCN(Cc2c(C(=O)O)nnn2-c2nonc2N)CC1 | . | 0.73
CCc1nn(CCCC(=O)NCCN(C)C)c(=O)c2cc3oc(C)cc3n12 | -1.5 | -0.47
O=c1c(S(=O)(=O)c2ccccc2)cn(Cc2cccc(F)c2)c2cc(N3CCOCC3)c(F)cc12 | 0.73 | .
Cc1cc(C)n(CC/C(N)=N/O)n1 | . | -1.1
CCCCCOC(=O)C1=C(C)NC2=C(C(=O)CCC2)C1c1cccc(Br)c1 (configuration not stated) | -1.9 | 0.8
CCc1ccc(N2C(=O)Nc3ccccc3S2(=O)=O)cc1 | 0.74 | .
CCSc1nc(=O)c2c(n1C)NC(=O)CC2c1ccccc1OC(C)C (configuration not stated) | -0.09 | -0.51
O=C(CSc1ccc(-c2ccccn2)nn1)Nc1ccc(F)c(F)c1 | 2 | .
O=C(O)c1ccc(-c2ccc(CO)o2)cc1 | -0.51 | 0.06
CC1CCC(NC(=O)C(C)n2sc3ccccc3c2=O)CC1 (configuration not stated) | 1.4 | -2.1
CCN1CCN(c2c(S(=O)(=O)c3ccc(C)c(C)c3)cnc3ccc(F)cc23)CC1 | 0.98 | -2.3
CN1C(=O)c2cc(C(=O)NC3CC3)nn2CC1(C)C(=O)NC1CCCCC1 (configuration not stated) | -0.88 | .
Cc1ccccc1-c1nc2c3c(C)c(C)n(CCCN(C)C)c3ncn2n1 | 0.85 | -0.8
COc1ccc(NC(=O)Nc2nnc(-c3nc(C)sc3C)o2)cc1OC | -0.7 | -1.4
COC(=O)c1sc2ccccc2c1S(=O)(=O)NCc1ccccc1 | 0.91 | .
Cc1nc2sc3c(SCC(=O)Nc4ccccc4)ncnc3c2c2c1COC(C)(C)C2 | 2.6 | -0.95
CC1CC(C)CN(CCCn2cnc3c([nH]c4ccccc43)c2=O)C1 (configuration not stated) | 1.2 | -1.3
Cc1nn2c(=O)cc(COC(=O)COc3ccccc3Cl)nc2s1 | -0.45 | .
CCOc1ccc(C2CC(c3cccc(OC)c3)n3nc(N)nc3N2)cc1 (configuration not stated) | 0.24 | -1.6
Cc1nc(-c2ccc(S(=O)(=O)Nc3ccc(F)cc3Cl)cc2)co1 | 0.46 | .
O=C(c1cc(-c2ccco2)[nH]n1)N1CCN(c2ccc(F)cc2)CC1 | 0.4 | .
Cn1ccnc1SCC(=O)Nc1ccc2c(c1)OCCO2 | 0.31 | -0.89
COc1ccc(-c2nn3c(-c4ccco4)nnc3c3ccccc23)cc1 | 2.5 | -1.1
CC(C)(O)C#Cc1ccc(/C=N/OC(=O)c2ccccc2Cl)cc1 | . | -1.2
Cc1ccc(Cl)cc1-n1ncc2c(N3CCN(CCO)CC3)ncnc21 | 2 | .
Cc1ccc(CNc2nc(-c3ccccc3)no2)o1 | 0.83 | .
Cc1cc(NC(=O)CN2c3ccccc3NC3=C(C(=O)CC(C)(C)C3)C2c2ccco2)no1 (configuration not stated) | -9.4 | .
Cc1ccc(OCc2nn3c(C)nnc3s2)cc1 | -0.02 | -0.5
O=C(CSc1c2c(nc3ccc(Cl)cc13)CCCC2)N1CCN(C(=O)c2ccco2)CC1 | . | -4.4
Fc1cccc(Cl)c1C1C=C(c2cccs2)Nc2nnnn21 (configuration not stated) | . | -1.7
O=c1oc(-c2ccccc2)nc2sc3c(c12)CCCCC3 | 2.9 | -1.2
CSC1=NC(N)=C(C#N)C2(CCCCC2)C1C(N)=O (configuration not stated) | 2.5 | -0.16
CC(C)c1ccc(S(=O)(=O)N2CCCC(c3nc(-c4cccc(F)c4)no3)C2)cc1 (configuration not stated) | 2.7 | .
O=C1CSC(=S)N1/N=C/c1cccnc1 | . | -2.4
CCCN(CCC)CCNc1ncnc2onc(-c3ccccc3C)c12 | -2.6 | .
COc1ccc(-c2noc(COc3cc(C)cc(C)c3)n2)cc1 | . | -1.2
CCc1cc2c(NCCCC(=O)O)ncnc2s1 | . | 0.29
Cc1ccc(S(=O)(=O)Nc2ccc(-c3ccc(S(C)(=O)=O)nn3)cc2)cc1C | -0.15 | .
CCCn1nccc1-c1ccc2c(c1)CN1CCC(O)C1=N2 (configuration not stated) | 0.63 | .
COc1ccc(Sc2ccc(C)cc2)c([N+](=O)[O-])c1 | . | -0.9
COc1ccc2[nH]c(=S)[nH]c2c1 | . | -1.9
Cc1ccc2c(c1)cc1c(=O)n(Cc3ccc(Cl)cc3)nc(C)n12 | 3.8 | -0.91
CS(=O)(=O)N1CCCc2ccc(NS(=O)(=O)CCc3ccccc3)cc21 | 0.78 | .
Cc1nc(N(C)C)cc(N2CCN(C(=O)c3ccc(C(C)(C)C)cc3)CC2)n1 | -0.47 | -0.68
CCCN1C(=O)C(O)(CC(=O)c2ccc(C(C)(C)C)cc2)c2ccccc21 (configuration not stated) | -0.34 | -1.4
Cc1nnc(N2C(=O)C(=O)/C(=C(/O)c3ccccc3)C2c2ccc(F)cc2)s1 (configuration not stated) | . | -2.3
NC(N)=NNC(=O)/C=C/C(=O)O | . | -0.73
CCN(c1ccccc1)c1nc2ccc(C)cc2n2cnnc12 | 0.61 | 0.95
CCOC(=O)c1c(NC(=O)c2noc3c2CCc2ccccc2-3)sc(C)c1C | . | -1.1
O=C(NCc1noc2ccccc12)N1CCN(c2ccccc2F)CC1 | 1.8 | .
CCCCCn1c(C)c2c(OCC)cccc(=O)c2c1C | -0.17 | -2.6
C/C=C/COC(=O)c1[nH]c2c(c1C)C(=O)CC(c1ccco1)C2 (configuration not stated) | 0.97 | 0.04
The listing continues:
SMILES | HIV TAR-Tat | CDC25B-CDK2 inh
Cc1c(C(=O)Nc2ccc3c(c2)OCCO3)oc2ccc3c(c12)C(=O)CC1(CCCC1)O3 | -0.1 | -3
O=C(CSC1=Nc2ccccc2C2=NC(Cc3ccccc3)C(=O)N12)Nc1ccccc1 (configuration not stated) | -0.2 | .
Cc1cc2c(Oc3ccccc3)ncnc2s1 | 1.7 | .
Nc1nc2c(s1)c(=O)[nH]c(=O)n2-c1ccc(Cl)cc1 | 1.1 | -0.41
CCN(CC)CCSc1nc2ccc(OC)cc2[nH]1 | 2 | -0.94
Cc1nnc(SCC(=O)Nc2ccc3c(c2)OCO3)s1 | 2.5 | -1.2
CCOc1ccc2c(c1)c(=O)c(S(=O)(=O)c1ccc(OC)cc1)cn2C | 0.35 | -1.9
COc1ccc(C(=O)N/N=C/c2cc(Cl)cc(Cl)c2O)cc1 | . | -0.64
Cc1nn(C(C)C(=O)NC(C)C)c(=O)c2c1sc1ccccc12 (configuration not stated) | 1.7 | -2.7
CCOc1ccc(OCC)c(S(=O)(=O)NCc2ccccn2)c1 | 2.1 | -1.6
Cc1cc(C(=O)N(C)C2CCCCC2)on1 | . | -0.98
Cc1nn(S(=O)(=O)c2ccccc2)c(C)c1Sc1ccccc1 | 2 | 0.15
Cc1nn(CCCC(=O)NCCCOC(C)C)c(=O)c2cc3occc3n12 | 3.6 | -1.3
